GLA inh pH 4.5 = inhibitors of human alpha-galactosidase A at pH 4.5 | P06280 | purified enzyme, 4-MU-alpha-Gal fluorescence, pH 4.5 | activity change, negative = inhibition, % at 105 µM | 230,000 tested, under 10 active | AID 1467; inconclusive = small, poorly fitted or top-dose-only inhibition, or a rising curve; inactive = flat fitted curve, though single readings scatter; no compound was filed as active;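 further: 0% = full activity with enzyme and -100% = basal without enzyme; dose as in the result columns while the protocol names 77 µM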
miR-21 FLuc = raises the signal of a miR-21 reporter; 340,000 tested, under 10 active; Potency, µM (doses to about 38.3 µM), for the others: at the top dose reporter change, positive = more light; HeLa miR-21 FLuc reporter, luciferase, 48 h; active = well fitted rising curve with a large enough effect; inconclusive = small, poorly fitted or top-dose-only effect; inactive = no such curve, though single readings can be large or run the other way;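 further: % of control where 0% means no effect; miR-21 action dims this reporter so a rising signal means less miR-21 action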
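Using DMEM plus 10% FBS, HeLa miR-21-FLuc cells are incubated with test compounds (final up to about 40uM) for 48 hours; firefly luciferase signal is then imaged following reagent-mediated lysis.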
Rango-impB inh = inhibitors of Rango-importin beta complex formation. Q14974. Rango CFP/YFP FRET sensor + importin beta, 45 min. Potency, µM (top dose mostly 92.2 µM), for inactives: top-dose inhibition of complex formation. hit rate 0.031% among 340,000; active = rising FRET ratio curve, often small or poorly fitted; inconclusive = mostly compound fluorescence or quenching in the first reads; inactive = flat curves in all reads;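 further: potency means the concentration at half of the fitted maximal effect; 0% = DMSO wells and 100% = buffer wells lacking importin beta; nearly all actives have a fitted effect of over 15% in size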
Target sequence (Q14974 whole entry, looked up): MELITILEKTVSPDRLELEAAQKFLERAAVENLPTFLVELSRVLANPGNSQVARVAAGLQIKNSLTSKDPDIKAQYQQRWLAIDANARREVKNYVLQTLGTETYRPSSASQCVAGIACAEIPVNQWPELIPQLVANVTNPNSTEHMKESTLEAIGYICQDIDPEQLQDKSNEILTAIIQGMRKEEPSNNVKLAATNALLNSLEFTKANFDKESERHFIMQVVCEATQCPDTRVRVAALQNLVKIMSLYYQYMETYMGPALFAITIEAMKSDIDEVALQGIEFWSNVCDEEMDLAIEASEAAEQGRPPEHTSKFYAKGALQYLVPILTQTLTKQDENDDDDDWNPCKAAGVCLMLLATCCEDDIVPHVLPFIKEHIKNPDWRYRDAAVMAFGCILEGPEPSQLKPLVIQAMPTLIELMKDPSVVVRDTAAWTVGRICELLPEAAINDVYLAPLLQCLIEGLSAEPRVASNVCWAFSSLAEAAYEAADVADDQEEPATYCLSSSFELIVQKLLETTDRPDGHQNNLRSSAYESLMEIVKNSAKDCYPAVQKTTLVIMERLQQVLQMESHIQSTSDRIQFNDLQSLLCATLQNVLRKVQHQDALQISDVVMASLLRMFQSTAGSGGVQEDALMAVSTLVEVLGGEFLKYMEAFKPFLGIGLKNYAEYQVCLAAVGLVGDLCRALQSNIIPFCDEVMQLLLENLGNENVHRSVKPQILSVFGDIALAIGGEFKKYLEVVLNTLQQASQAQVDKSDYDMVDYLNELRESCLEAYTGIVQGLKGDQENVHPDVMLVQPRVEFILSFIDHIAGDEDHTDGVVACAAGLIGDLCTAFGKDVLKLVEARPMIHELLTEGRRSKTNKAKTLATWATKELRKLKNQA
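FRET biosensor Rango (snurportin 1 IBB between N-terminal EYFP and C-terminal Cerulean), 50 nM in PBS/1 mM DTT/0.02% Tween-20/0.1% BSA, preincubated 5 min RT with compound; 0.125 microM importin beta added, 45 min RT, CFP/YFP FRET ratio read.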
Rango dissoc inh = prevents RanGTP from dissociating the Rango-importin beta complex; O95149+P62826; Biochemical FRET Rango-importin beta, RanGTP-induced dissociation; Potency, µM (top dose mostly 46.1 µM), without a hit: at the top dose activity change, negative = inhibition; hit rate 0.071% among 340,000; active means falling FRET ratio curve, often poorly fitted, with flat reads before Ran was added; inconclusive means other falling curves, or compound fluorescence or quenching; inactive means flat or rising ratio curve;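 further: potency means the concentration at half of the fitted maximal effect; % of control where 0% means no effect; nearly all actives have a fitted effect of over 45% in size; -100% = wells without RanGTP and RCC1; the record marks most hits as doubtful in a second field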
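FRET read at 45 min, room temperature: inhibitors block the CFP/YFP signal rise when RanGTP (0.6 uM Ran, 2 mM GTP, 0.2 uM RCC1) frees Rango (0.1 uM) from importin beta (0.25 uM). Pre-read after 5 min compound exposure flags interference.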
Starred values were filed as active, the others as inactive; ? = inconclusive; . = no result given.

GLA inh pH 4.5	miR-21 FLuc	Rango-impB inh	Rango dissoc inh	molecule
0	-4%	3.3%	-7%	Cc1cc(C2C(C#N)=C(N)OC3=C2C(=O)CCC3)c(C)s1 (stereo not drawn)
-1	-7%	0.2%	-3%	O=C(NC(Cc1ccccc1)C(=O)OCC(=O)N1CCc2ccccc21)c1ccco1 (stereo not drawn)
-7	17%	-1.2%	-1%	O=C(NCc1ccc(F)cc1)c1ccc(CS(=O)(=O)Cc2ccccc2F)o1
-17	-5%	-0.3%	-9%	Cc1ccc(-c2nnc(SCc3nc4ccccc4[nH]3)n2Cc2ccco2)cc1
0	-34%	3.5%	-8%	O=C(NCCSCc1ccco1)c1ccc(CN2CCOCC2)cc1
.	-1%	0.3%	2%	[O-][n+]1c2ccccc2[n+]([O-])c2cc(O)ccc21
.	.	-3.1%	0%	COc1cc(S(=O)(=O)NCC(c2ccco2)N2CCCCC2)ccc1NC(C)=O (stereo not drawn)
7	-2%	.	.	COc1ccc(-c2cc(=O)oc3cc(OCC(=O)c4cccc([N+](=O)[O-])c4)ccc23)cc1
6	-75%	-3.7%	0%	O=C(N/N=C/c1cn(-c2ccccc2)nc1-c1cc2ccccc2o1)c1ccccc1Br
.	-1%	0.7%	14%	CCCC(C)NC(=O)C1c2ccccc2Oc2ccccc21 (stereo not drawn)
-10	-10%	-0.4%	0%	COc1ccc(-c2nnn(CC(=O)c3ccc4c(c3)OCCO4)n2)cc1OC
-4	3%	?	0%	Cc1c(Cl)cccc1NC(=O)CSc1nnc(CCNC(=O)OC(C)(C)C)o1
.	-2%	1.0%	0%	Cc1ccc(-n2nc3c(N4CCC(C(=O)NCc5ccccc5C)CC4)nnc(C)c3c2C)cc1
.	.	-4.2%	0%	COc1ccc(-c2nnc(N(C)C(=O)C3CCOC3)s2)cc1 (stereo not drawn)
3	-7%	?	-22%	Cc1sc2nc(CSCC(=O)Nc3c(Cl)cccc3Cl)[nH]c(=O)c2c1C
.	-45%	-1.3%	0%	O=C(NNC(=S)Nc1ccccc1)c1cccnc1
0	16%	6.1%	11%	O=C(Nc1ccc(S(=O)(=O)NC2=NCCCCC2)cc1)c1ccc(C(F)(F)F)cc1
7	-1%	3.8%	-3%	O=C(O)c1ccc2c3c(cccc13)C(=O)N(OS(=O)(=O)c1ccccc1)C2=O
.	-5%	1.8%	-8%	COc1ccc(CCNC(=O)CCCn2c(=O)c3cccn3c3cccnc32)c(OC)c1OC
-17	-4%	?	?	COc1cccc(/C=N/n2c(-c3n[nH]c4c3CCC4)n[nH]c2=S)c1O
.	0%	2.5%	-16%	COC(=O)c1sc(NC(=S)NNC(=O)c2c(Br)c(C)nn2C)c(C(=O)OC)c1C
-21	0%	-2.3%	-11%	COc1ccc(Cl)cc1C(=O)NNC1CC(=O)N(Cc2ccc(Cl)cc2)C1=O (stereo not drawn)
.	.	?	-2%	CCN1C(=O)[C@H]2[C@@H](c3ccc(-c4ccc(OC)cc4)cc3)N[C@@](C)(C(=O)OC)[C@H]2C1=O
12	-60%	.	.	COc1cc(/C=N/O)ccc1OCc1ccc(Cl)cc1
.	.	0.7%	29%	COc1cc(C(=O)C(=O)c2ccc(OC)c(OC)c2)ccc1O
.	1%	-3.5%	19%	CCOc1ccc2ccccc2c1C1NC(=O)N(C)C(C)=C1C(=O)OCCOC (stereo not drawn)
-3	-4%	0.3%	16%	COc1ccc(C2CC(c3ccc(OC)cc3)n3nc(NS(C)(=O)=O)nc3N2)cc1 (stereo not drawn)
.	.	2.1%	0%	CC(=O)Nc1cc(NC(C)=O)cc(C(=O)NCC2(N3CCOCC3)CCCCC2)c1
1	1%	0.3%	-15%	C/C(=N/NC(=O)CNC(=O)c1cccnc1)c1cccc([N+](=O)[O-])c1
2	0%	-0.8%	?	CCC(=O)c1ccc(OCC(=O)N(C)CC(=O)Nc2cccc(F)c2)cc1
-1	-4%	-6.4%	-1%	CCN1CCN(C(=O)CN(c2cc(OC)ccc2OC)S(C)(=O)=O)CC1
10	0%	-3.9%	25%	COc1ccc(/C=N/n2c(C)nnc2C)c(OC)c1OC
.	.	-4.5%	-4%	C[C@H](CO)N1C[C@H](C)[C@@H](CN(C)S(=O)(=O)c2cccs2)Oc2ccc(NC(=O)Cc3ccccc3)cc2C1=O
2	-16%	-1.4%	7%	O=C(CN1C(=O)C2C3C=CC(C4CC34)C2C1=O)Nc1cccc2ncccc12 (stereo not drawn)
2	-38%	1.6%	11%	O=C(O)c1cccc(NC(=O)c2cn(-c3ccccc3)nc2-c2cc3ccccc3o2)c1
.	.	-1.7%	-2%	CC(=O)c1c(C)[nH]c(C(=O)OCc2csc(CC(=O)Nc3ccccc3C)n2)c1C
6	0%	?	-5%	CCc1ccc(OCC(=O)NNC(=O)Cc2cccs2)cc1
.	-1%	-4.8%	-17%	OCC[C@@H]1C[C@H](O)[C@@H](O)[C@@]2(OCc3ccccc32)O1
.	.	2.7%	9%	CCN(CC(=O)Nc1c(F)cccc1F)C(=O)c1ccc(COc2ccccc2)cc1
-20	-4%	0.5%	0%	COC(=O)Cc1ccc(NC(=S)NCc2ccccc2Cl)cc1
.	0%	-1.1%	-4%	Cc1cccc(NC(=O)CCC2CCN(Cc3nccs3)CC2)c1
.	.	2.1%	-15%	COc1ccccc1-c1sc2ccccc2c1-c1ccc(OCCN2CCCCC2)cc1
-2	18%	0.4%	0%	Cn1c(=O)c2c(ncn2Cc2ccc(Cl)c(Cl)c2)n(C)c1=O
-3	-5%	?	-17%	CCO/N=C(/c1nonc1N)N1CCN(c2ccc([N+](=O)[O-])cc2)CC1
-3	-3%	-1.4%	21%	Clc1ccc(CO/N=C/c2c(-c3ccccc3)nc3n2CCS3)c(Cl)c1
.	1%	0.0%	18%	Cc1cccc(N(C(=O)c2ccco2)C(C(=O)NC2CCCC2)c2cccnc2)c1C (stereo not drawn)
4	?	1.0%	-2%	Cc1csc(NC(=O)c2cc3c(s2)CCCCC3)n1
10	-7%	5.9%	17%	CCC1CCCCN1C(=O)CSc1nc(C)cc(C)n1 (stereo not drawn)
.	.	-2.0%	15%	O=C(CCC(=O)c1ccc(F)cc1)NN1C(=O)NC2(CCCCC2)C1=O
-8	0%	?	?	COc1ccc(OC)c(/C=N/NC(=O)c2ccc(Cn3cc([N+](=O)[O-])cn3)o2)c1
-4	-5%	0.6%	-16%	Cc1nnc(SCC(=O)NC(C)(C)C)n1NCc1c(F)cccc1Cl
5	3%	-0.7%	-9%	COc1cc(/C=C/c2c([N+](=O)[O-])c(=O)n(C)c(=O)n2C)cc(OC)c1OC
.	.	1.2%	3%	Cc1cccc(S(=O)(=O)Nc2ccc(S(=O)(=O)Nc3nccs3)cc2)c1
.	0%	1.6%	-19%	CCC(C)(C)NC(=O)CN(C(=O)CNS(=O)(=O)c1ccc(F)cc1)c1ccc2c(c1)OCCO2
.	2%	-0.7%	1%	Cc1c(C)c2c(OCC(=O)NCc3ccncc3)cc3c(c2oc1=O)CCC(C)(C)O3
3	17%	5.0%	-8%	COc1ccc(-c2noc(CCC(=O)NCCCN3CCN(c4ccc(F)cc4)CC3)n2)cc1
0	3%	4.1%	31%	CCNC(=S)NNC(=O)c1cc(-c2cc(C)ccc2C)nc2ccccc12
.	.	1.3%	2%	CCOC(=O)C[C@H]1c2ccc(C(F)(F)F)cc2S(=O)(=O)N1C(C)(C)C
8	-5%	1.7%	2%	COc1ccc(CC(=O)NCc2ccc3c(c2)OCO3)cc1
9	-31%	?	-27%	O=C1Nc2ccc(S(=O)(=O)N3CCOCC3)c3cccc1c23

The list goes on:
GLA inh pH 4.5	miR-21 FLuc	Rango-impB inh	Rango dissoc inh	molecule
.	.	-0.2%	0%	COc1ccc(/C=C/C(=O)OC(C)C(=O)c2ccccc2)cc1OC (stereo not drawn)
.	?	3.3%	-2%	COc1ccc(C2c3ccc4ccccc4c3Oc3ncn(CCCN(C)C)c(=N)c32)cc1 (stereo not drawn)
.	-5%	-4.4%	-5%	COC(=O)c1ccc(Cl)c(NC(=O)CSc2nnc(-c3ccncc3)o2)c1
.	0%	-0.9%	0%	O=c1cc(C(F)(F)F)[nH]c(=S)n1-c1ccccc1
-6	1%	3.9%	9%	Cc1cccc(OCCCC(=O)Nc2ccc(S(=O)(=O)Nc3onc(C)c3C)cc2)c1C
-10	4%	5.6%	4%	CC1SC(c2ccccc2)N(CC(O)c2ccc([N+](=O)[O-])cc2)C1=O (stereo not drawn)
1	-8%	0.1%	-1%	CN(C)/C=C(\C#N)C(=O)Nc1ccc(O)cc1F
6	0%	-1.0%	1%	COc1ccccc1N1CCN(C2CCN(S(=O)(=O)c3ccc(NC(C)=O)cc3)CC2)CC1
.	.	4.1%	-9%	CO[C@@]12[C@@H]3N[C@@H]3CN1C1=C(C(=O)C(N)=C(C)C1=O)[C@@H]2COC(N)=O
13	-1%	-1.5%	1%	CCCCn1nc2cc(C(=O)NC[C@@H]3CCCO3)ccc2c1OCC
.	-8%	?	1%	N#C/C(=C\c1cc2c(cc1Br)OCO2)c1ccc(C(=O)O)cc1
.	15%	5.0%	18%	COCc1nnc(NC(=O)CCS(=O)(=O)c2ccccc2)s1
?	1%	-2.0%	13%	Cc1cc(=O)oc2cc(OC(=O)c3cncc(Br)c3)ccc12
.	3%	3.6%	-3%	COc1cccc(CNC(=O)Cn2ccc([N+](=O)[O-])n2)c1
-19	19%	?	?	Cc1cccc(-n2c(O)c(C=Nc3ccccc3O)c3ccccc3c2=O)n1
.	-42%	-1.4%	1%	Cc1ccc2sc(NC(=O)C3CC3)nc2c1C
-1	3%	6.6%	13%	CCOc1ncccc1C(=O)OC(C)C(=O)NC(=O)NC1CCCCC1 (stereo not drawn)
-9	-2%	?	-1%	COc1ccc(-n2c(N)c(C(=O)Nc3c(C)n(C)n(-c4ccccc4)c3=O)c3nc4ccccc4nc32)cc1
-4	13%	-4.3%	9%	O=C(Nc1ccccc1C(F)(F)F)N1CCC(n2c(=O)[nH]c3ccccc32)CC1

Some of the compounds tested. The share of hits here may be higher or lower than overall.
